PV pol inh – poliovirus RdRp elongation inhibitors, primary screen, biochemical, fluorescence polarization, total intensity; AID 588519, 2011; % elongation, % (compound at 16.7 µg/mL); poliovirus polymerase elongation; hits give low values; 150,000 tested, 0.66% active; Genome polyprotein (Poliovirus type 1 (strain Mahoney)), P03300; in the data active means % elongation below about 90%; further: some results filed as inactive read as strong as hits
Target sequence (P03300 1749-2209 limits assumed): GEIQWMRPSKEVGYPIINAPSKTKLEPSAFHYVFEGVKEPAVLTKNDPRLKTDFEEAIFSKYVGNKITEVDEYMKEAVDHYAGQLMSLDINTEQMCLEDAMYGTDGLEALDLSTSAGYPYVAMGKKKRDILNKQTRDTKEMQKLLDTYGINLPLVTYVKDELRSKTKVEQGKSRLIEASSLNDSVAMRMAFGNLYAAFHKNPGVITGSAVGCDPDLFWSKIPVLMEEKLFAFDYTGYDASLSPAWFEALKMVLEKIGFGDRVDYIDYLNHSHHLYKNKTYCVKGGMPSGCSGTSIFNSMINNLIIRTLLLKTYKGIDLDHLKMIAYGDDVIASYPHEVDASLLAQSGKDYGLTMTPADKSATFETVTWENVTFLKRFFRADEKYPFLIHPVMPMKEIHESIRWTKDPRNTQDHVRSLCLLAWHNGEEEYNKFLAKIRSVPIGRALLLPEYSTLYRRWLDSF
MenB inh – M. tuberculosis MenB inhibitors, primary screen, biochemical, absorbance; inhibition, %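 (about 12 µg/mL by stock and volumes)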; 1,4-dihydroxy-2-naphthoyl-CoA synthase (Mycobacterium tuberculosis (strain ATCC 25618 / …; 100,000 tested, 0.43% active; AID 540299, 2011; MenB enzyme assay, absorbance read-out; some hits fall short of the stated cut;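 active means mean of two replicates above 30%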;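 further: 0% = no compound and 100% = wells with inactive enzyme; the first replicate is given; strong numbers were not always called active; inactives centre near -10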
MbtI inh – MbtI salicylate synthase inhibitors, primary screen, biochemical, fluorescence intensity; P9WFX0; 100,000 tested, 0.89% active; purified MbtI enzyme, fluorescence intensity read-out; inhibition, %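 (about 17 µg/mL by stock and volumes)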;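 active means above 50% in both replicates, above 80% if mildly self-fluorescent; inactive means the rest, strongly fluorescent compounds included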;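 further: 0% = mean of negative and 100% = mean of positive controls; one replicate is shown; some compounds called inactive have numbers as strong as hits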
Target sequence (P9WFX0 whole entry, looked up): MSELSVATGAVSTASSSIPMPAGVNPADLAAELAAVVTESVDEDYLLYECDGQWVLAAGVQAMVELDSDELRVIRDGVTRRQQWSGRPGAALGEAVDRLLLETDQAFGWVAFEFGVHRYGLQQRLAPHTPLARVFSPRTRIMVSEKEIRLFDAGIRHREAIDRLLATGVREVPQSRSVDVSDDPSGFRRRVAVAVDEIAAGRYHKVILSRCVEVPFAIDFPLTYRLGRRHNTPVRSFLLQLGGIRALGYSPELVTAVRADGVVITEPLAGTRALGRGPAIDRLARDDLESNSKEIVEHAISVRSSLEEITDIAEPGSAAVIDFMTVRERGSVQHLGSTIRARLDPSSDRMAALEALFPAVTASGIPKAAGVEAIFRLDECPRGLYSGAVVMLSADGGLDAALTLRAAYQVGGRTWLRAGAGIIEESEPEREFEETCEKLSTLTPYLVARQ
PV pol inh intensity – also measured in PV pol inh; calls as there; % elongation; measured here: total intensity read-out; formula for this scale not given here;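 total fluorescence in place of polarization; lower means less elongation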
The depositor's hits bear a star; i = inactive; x = not tested or not shown; & = joins results of further samples.

SMILES	PV pol inh	PV pol inh intensity	MenB inh	MbtI inh
Cc1ccnc(NC(=O)COc2ccc(Cl)cc2Cl)n1	101	103	24	15
CCC(C(=O)N1CCC(C)CC1)c1ccccc1 (stereo unspecified)	101	102	-35	-6
CCOc1cc2c(cc1OCC)C1C(C(=O)NCCCN3CCN(CC)CC3)c3ccccc3C(=O)N1CC2 (stereo unspecified)	102	101	-9	-4
CCOC(=O)N/N=C/c1cccc(Br)c1	104	100	5	4
CC(=O)n1c(C)cc(=O)[nH]c1=O	101	103	-14	12
CC1CC(C)CN(S(=O)(=O)c2ccc(F)c(F)c2)C1 (stereo unspecified)	104	106	x	-5
CCN(CC(=O)Nc1ccccc1Br)C1CCCCC1	100	101	-12	-2
O=C(Cc1ccc(F)cc1)Oc1ccccc1F	104	105	-16	x
COc1ccc2nc3[nH]nc(NC(=O)Cc4ccccc4OC)c3cc2c1	103	108	-19	2
CCC(C)NC(=O)c1ccc2c(c1)N=C(C)c1cc(Cl)ccc1S2 (stereo unspecified)	102	107	-10	-6
Cc1cc(NC(=O)c2sc3nc(-c4ccccc4)cc(C(F)(F)F)c3c2N)no1	88	127	4	-7
Cc1ccc(Nc2cc(C(=O)O)c3ccccc3n2)c(C)c1	100	101	-5	-12
O=C(NC1CCCc2ccccc21)c1ccc2c(=O)n3c(nc2c1)CCCCC3 (stereo unspecified)	101	100	-17	-6
COC(=O)C1=C(C)N(c2ccccc2F)C(=O)/C1=C\c1cccc(OC)c1O	103	102	-54	1
O=C(CCc1ccc(-c2ccccc2)o1)Nc1ccccc1C(=O)NC1CC1	101	102	-21	-18
CCC1C(=O)NCCN1C(=O)c1ccc(C)c(I)c1 (stereo unspecified)	100	102	11	-3
COc1ccccc1CNC(=O)c1nnc(Cc2ccc(F)cc2)o1	100	104	-17	-21
N#CCC(Cc1ccccc1)c1ccc2c(c1)OCO2 (stereo unspecified)	101	107	-32	-4
Cc1cc(NS(=O)(=O)c2ccc(NC(=S)NCc3ccccc3)cc2)no1	101	97	-2	-9
O=C(CSc1ccc(F)cc1)N1CCCC1	100	102	-3	9
CN1CCC(NC(=O)c2cc(Br)ccc2Cl)CC1	101	103	5	-3
O=C(c1cccc(COCC(F)(F)C(F)F)c1)N1CCN(c2ccccc2)CC1	98	101	12	3
Cc1ccc2nc(CCCC(=O)O)[nH]c2c1	103	105	-42	3
CCOc1ccc2c(c1)sc1c(C)cc(=O)oc12	103	99	9	i
CCCNc1c(N)n(-c2ccccc2)c(=O)[nH]c1=O	98	105	-6	25
O=C1NCCN1Cc1ccccc1	102	102	8	12
CCOC(=O)Oc1cc2oc(=O)sc2cc1Cl	98	101	6	22
O=C(NC1CCCCC1)C1c2cccn2CC(=O)N1CCCN1CCCC1=O (stereo unspecified)	103	107	-20	-5
CSc1ncc(Cl)c(C(=O)N(Cc2ccccc2)c2ccccn2)n1	103	103	-13	-5
Cc1ccccc1C(OCCN(C)C)c1ccccc1 (stereo unspecified)	101&99	99&102	-8&-3	-8&-16

An excerpt from above, showing only PV pol inh intensity:
| structure | PV pol inh intensity |
| --- | --- |
| CC(=O)n1c(C)cc(=O)[nH]c1=O | 103 |
| CC1CC(C)CN(S(=O)(=O)c2ccc(F)c(F)c2)C1 (stereo unspecified) | 106 |
| Cc1ccc2nc(CCCC(=O)O)[nH]c2c1 | 105 |

Continued.
SMILES	PV pol inh	PV pol inh intensity	MenB inh	MbtI inh
CCCc1[nH]nc2c1C(CCc1ccccc1)C(C#N)=C(N)O2 (stereo unspecified)	101	109	-6	-1
CC(c1ccc(-n2cncn2)cc1)N(C)S(=O)(=O)c1cccc(C#N)c1 (stereo unspecified)	104	108	3	1
CN(CC(=O)N1CCc2ccccc2C1)S(=O)(=O)c1ccc(Cl)cc1	99	97	-29	24
Cc1cccc(NC(=O)CCN2CCC(C)CC2)c1	103	107	-21	-7
Cc1nc(-c2ccc(S(=O)(=O)N3CCCc4ccccc43)s2)cs1	129	138	-10	-3
CCc1ccc2[nH]c(=O)c(C(c3nnnn3C3CCCCC3)N3CCCC3)cc2c1 (stereo unspecified)	101	102	-22	-9
CC1(C)Cc2ccccc2C(Nc2nc(-c3ccccc3)cs2)=N1	102	104	7	-3
O=C(c1ccc2ccccc2n1)N1CCN(c2ccccc2O)CC1	101	96	x	-4
CCCc1[nH]c(Br)nc1-c1ccccc1	104	105	-15	9
COc1ccc(C2CC(=O)C3=C(C2)NC(=O)CC3c2ccc(OC)c(OC)c2)cc1OC (stereo unspecified)	102	102	4	1

Shown with values under each structure: entries from further up
Each structure is followed by: PV pol inh	PV pol inh intensity	MenB inh	MbtI inh
CN(CC(=O)N1CCc2ccccc2C1)S(=O)(=O)c1ccc(Cl)cc1
→ 99	97	-29	24
Cc1cccc(NC(=O)CCN2CCC(C)CC2)c1
→ 103	107	-21	-7

The list continues:
SMILES	PV pol inh	PV pol inh intensity	MenB inh	MbtI inh
COc1ccc(/C=N/N=C2\CC(C)(C)Cc3n[nH]c(=O)cc32)cc1OC	100	100	-169	-1
N#Cc1ccc2snnc2c1	102	97	-6	-7
Cc1ccc(-c2cnc(NC(=O)CCC(=O)N3CCCCC3)n2C)cc1	101	99	-13	1
Cc1cccc(C)c1OCCCCN1CC(C)OC(C)C1 (stereo unspecified)	98	101	-18	-13
C#CCN(C)CCCOc1ccc(Cl)cc1Cl	100	101	6	-13
Cc1cc(Cl)cc(C)c1OCC1COS(=O)O1 (stereo unspecified)	82*	77*	-6	-4
CC(C)(C)NC(=O)CCN1C(=O)/C(=C\c2ccco2)SC1=S	102	104	-76	8
O=C(Cc1ccccc1)Sc1ccccc1C(=O)O	105	96	5	x
CCOC(=O)c1nn(-c2ccccc2)c(=O)c2c(N)scc12	99	104	7	29
O=C(C=C1SCCS1)C1CC1c1ccccc1 (stereo unspecified)	106	102	7	14
CCN1CCN(c2nc(-c3cccc(Cl)c3)c3c(n2)-c2ccccc2OC3)CC1	105	104	-12	23
COc1ccc(CN(Cc2cc3cccc(C)c3n3nnnc23)C(=O)N2CCOCC2)cc1	101	100	-34	-1
COc1cc2c(cc1OC)C(C)N(C=C(C#N)C#N)CC2 (stereo unspecified)	102	101	-2	-4
CC(C)c1ccc(N2C(=O)CSCC2(C(=O)NC2CCCCC2)c2ccc(Cl)cc2)cc1 (stereo unspecified)	103	108	-11	-1
CN(CCc1ccccn1)C(=S)NC(=O)c1ccco1	105	102	6	7
CCn1c2c(c(=O)[nH]c1=O)C(c1ccc(OC)cc1)C1=C(N2)c2ccccc2C1=O (stereo unspecified)	97	90	-23	-3
O=C1N=C(c2cccc(O)c2)c2ccccc2Nc2ccccc21	104	100	-22	x
O=C(CN1CCc2ccccc2C1)NCc1ccc(F)cc1	103	102	-2	-2
CC1CN(S(=O)(=O)c2ccc(C(=O)NC3=NCCS3)cc2)CC(C)O1 (stereo unspecified)	104	104	15	7
OC(CN(Cc1ccccc1)Cc1ccccc1)Cn1c2ccccc2c2ccccc21 (stereo unspecified)	108	100	-25	x
Cc1ccc(-n2cc3cnnc(-c4ccccc4)c3n2)cc1	102	106	-19	-5
Cc1ccc(S(=O)(=O)/C(C#N)=C\c2cn(-c3ccccc3)nc2-c2cc3ccccc3o2)cc1	102	103	-7	-12
N#Cc1ccc(-c2cccnc2)[nH]c1=O	105	99	-5	x
O=C(O)CCS(=O)(=O)c1ccc(-c2ccccc2)cc1	102	103	40	1
Cc1noc2c1C(c1cccnc1)C1=C(CCCC1=O)N2 (stereo unspecified)	100	105	-16	20
O=C(C1CCN(c2nc3ccccc3n3cccc23)CC1)N1CCN(c2ccccc2)CC1	104	103	-22	-6
CN(/C=C/C=[N+](C)c1ccccc1)c1ccccc1	104	105	x	7
S=C(Nc1ccccc1)N1CCCCCC1	103	104	-1	-3
CCn1c(N)c(C(=O)c2cccc(S(=O)(=O)N(C)C3CCCCC3)c2)c(=O)[nH]c1=O	104	106	-5	8
CC1=CC(C)(C)N(Cc2ccccc2)c2cc(C)ccc21	105	101	-20	14

Single records, from the list above:
Cc1ccc(-n2cc3cnnc(-c4ccccc4)c3n2)cc1 is listed with PV pol inh = 102; PV pol inh intensity = 106; MenB inh = -19; MbtI inh = -5
CN(/C=C/C=[N+](C)c1ccccc1)c1ccccc1 is listed with PV pol inh = 104; PV pol inh intensity = 105; MenB inh = x; MbtI inh = 7
O=C(O)CCS(=O)(=O)c1ccc(-c2ccccc2)cc1 is listed with PV pol inh = 102; PV pol inh intensity = 103; MenB inh = 40; MbtI inh = 1

The results go on.
SMILES	PV pol inh	PV pol inh intensity	MenB inh	MbtI inh
Cc1ccc(C(=O)Nc2cc3c(oc2=O)CC(C)(C)CC3=O)cc1	102	102	-5	-8
CC(=O)Oc1ccccc1C(=O)N1CCc2ccccc21	102	100	-5	x
COC(=O)/C=c1/s/c(=C(/C#N)C(N)=O)n(-c2ccccc2)c1=O	x	x	-29	11
OC(c1ccco1)c1nccc2ccccc12 (stereo unspecified)	101	108	-16	3
Fc1ccc2nc(Nc3nc4ccc(F)cc4s3)sc2c1	101	102	-12	23
COCCNc1ncc(C(=O)OC)c2ccccc12	101	100	-22	124
Cc1cc(Cl)c2cc(O)ccc2n1	96	102	11	5
O=C(c1ccc(S(=O)(=O)Nc2ccc3c(c2)OCCO3)s1)N1CCCC1	99	101	-25	-2
O=C(CCNS(=O)(=O)c1ccc(Cl)cc1)N1CCN(c2ccccn2)CC1	101	100	-22	63
COc1ccc(Cc2nnc(C(=O)NCc3ccccc3)o2)cc1OC	102	102	4	9
Oc1oc(-c2ccccc2)cc1C=Nc1ccccc1	100	101	-31	-10
COC(=O)c1nnc(Nc2ccc(Oc3ccccc3)cc2)c2ccccc12	104	105	-59	-12
O=C(NCc1ccccc1CN1CCCC1)c1cc(=O)[nH]c2ccccc12	105	103	-7	8
CC(OC(=O)Cc1c[nH]c2ccccc12)C(=O)NC1CCCC1 (stereo unspecified)	102	103	-46	-5
COCc1c(C(=O)OCc2cc(=O)oc3cc(C)ccc23)oc2ccccc12	102	103	-11	i
CCc1nc2c(cnn2-c2ccccc2)c(=O)n1-c1ccc(Br)cc1	100	106	26	0
COC(=O)c1ccccc1NC(=O)/C(C#N)=C/c1ccc2noc(-c3ccccc3)c2c1	65	137	4	3
Cc1cc2c3c([nH]c2cc1S(=O)(=O)N1CCC(C)CC1)CCCC3=O	101	103	-21	-20
N/C(=N\S(=O)(=O)c1ccc(Cl)c(Cl)c1)c1ccccn1	106	110	-36	-10
CC(=O)N1CCc2cc(S(=O)(=O)CCC(=O)N3CCCC3)ccc21	105	98	-28	-3
CCC(=O)NCC1(c2ccccc2)CCCC1	103	101	-2	-1
Cc1c(Cl)cccc1-n1c(SCC(=O)N2CCC(C(=O)O)CC2)nc2ccccc2c1=O	104	108	-5	-8
CCOC(=O)CC1C(=O)NCCN1C(=O)COc1ccc(C(C)(C)C)cc1 (stereo unspecified)	102	100	-31	-28
CN1/C(=C\C(=O)COC(=O)C2CCN(S(=O)(=O)c3ccc4c(c3)OCCO4)CC2)C(C)(C)c2ccccc21	x	x	-53	30
CCC(C)NC(=O)c1ccc(CS(=O)(=O)Cc2cccc(C)c2)o1 (stereo unspecified)	100	100	-15	9
Cc1cc(C)nc(SCc2ccccc2C(=O)O)n1	102	99	-15	-9
CCc1ccc(NC2=CC(=O)CC(c3ccco3)C2)cc1 (stereo unspecified)	101	106	-14	1
CCC1CCCCN1C(=O)CSCc1ccc(Cl)cc1 (stereo unspecified)	102	99	x	-1
Cc1ccc(-n2ncc3c(=O)[nH]c(SCC(=O)Nc4ccccc4C(F)(F)F)nc32)cc1	103	102	-7	2

Bioassay records deposited in PubChem by ICCB-Longwood Screening Facility, Harvard Medical School.
